# Assay outcomes as filed in PubChem BioAssay.
# Rango-impB inh: Rango-importin beta binding inhibition; Potency, µM (titrated, usually from 92.2 µM), inactives show at the top dose inhibition of complex formation; Q14974; AID 540263; 340,000 compounds, 0.031% hits; Rango CFP/YFP FRET sensor + importin beta, 45 min; active = rising FRET ratio curve, often small or poorly fitted; inconclusive = mostly compound fluorescence or quenching in the first reads; inactive = flat curves in all reads;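 note: potency is the fitted concentration of half-maximal effect; 0% = DMSO wells and 100% = buffer wells lacking importin beta; nearly all actives have a fitted effect of over 15% in size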
# Target sequence (Q14974 whole entry, looked up): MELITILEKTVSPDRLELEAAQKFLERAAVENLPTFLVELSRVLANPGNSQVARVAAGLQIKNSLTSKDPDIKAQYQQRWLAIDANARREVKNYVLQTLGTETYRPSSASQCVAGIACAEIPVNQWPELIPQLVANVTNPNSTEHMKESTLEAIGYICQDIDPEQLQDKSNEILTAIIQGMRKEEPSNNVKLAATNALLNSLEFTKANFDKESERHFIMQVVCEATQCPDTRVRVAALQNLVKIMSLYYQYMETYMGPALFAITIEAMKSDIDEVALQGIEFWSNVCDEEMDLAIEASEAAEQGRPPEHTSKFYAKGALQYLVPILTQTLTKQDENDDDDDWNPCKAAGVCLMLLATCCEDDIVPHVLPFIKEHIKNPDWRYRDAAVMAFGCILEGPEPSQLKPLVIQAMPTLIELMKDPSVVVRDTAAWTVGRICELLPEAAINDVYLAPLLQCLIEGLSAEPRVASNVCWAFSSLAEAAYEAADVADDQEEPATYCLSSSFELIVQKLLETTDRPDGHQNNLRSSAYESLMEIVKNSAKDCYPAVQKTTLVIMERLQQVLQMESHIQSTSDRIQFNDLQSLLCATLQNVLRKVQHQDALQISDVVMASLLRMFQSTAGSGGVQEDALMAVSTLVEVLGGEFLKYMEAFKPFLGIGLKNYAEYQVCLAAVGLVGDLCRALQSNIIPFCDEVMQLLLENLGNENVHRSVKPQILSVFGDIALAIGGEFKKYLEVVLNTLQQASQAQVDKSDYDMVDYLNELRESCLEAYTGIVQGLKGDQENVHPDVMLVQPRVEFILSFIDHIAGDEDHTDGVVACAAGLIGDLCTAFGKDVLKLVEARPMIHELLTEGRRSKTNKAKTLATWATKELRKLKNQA
#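 FRET biosensor Rango (snurportin 1 IBB between N-terminal EYFP and C-terminal Cerulean), 50 nM in PBS/1 mM DTT/0.02% Tween-20/0.1% BSA, preincubated 5 min RT with compound; 0.125 microM importin beta added, 45 min RT, CFP/YFP FRET ratio read.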
# Rango dissoc inh: inhibitors of RanGTP-induced Rango-importin beta complex dissociation. Biochemical FRET Rango-importin beta, RanGTP-induced dissociation. 340,000 compounds, 0.071% hits. Potency, µM (doses to about 46.1 µM), for inactives: top-dose activity change, negative = inhibition. AID 540253. O95149+P62826; active means falling FRET ratio curve, often poorly fitted, with flat reads before Ran was added; inconclusive means other falling curves, or compound fluorescence or quenching; inactive means flat or rising ratio curve;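 note: potency is the fitted concentration of half-maximal effect; % of control where 0% means no effect; nearly all actives have a fitted effect of over 45% in size; -100% = wells without RanGTP and RCC1; the record marks most hits as doubtful in a second field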
#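 FRET read at 45 min, room temperature: inhibitors block the CFP/YFP signal rise when RanGTP (0.6 uM Ran, 2 mM GTP, 0.2 uM RCC1) frees Rango (0.1 uM) from importin beta (0.25 uM). Pre-read after 5 min compound exposure flags interference.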
# miR-21 FLuc: raises the signal of a miR-21 reporter. HeLa miR-21 FLuc reporter, luciferase, 48 h. Potency, µM (top dose mostly 38.3 µM), for inactives: at the highest dose reporter change, positive = more light. 340,000 tested, under 10 active; active = well fitted rising curve with a large enough effect; inconclusive = small, poorly fitted or top-dose-only effect; inactive = no such curve, though single readings can be large or run the other way;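 note: % of control where 0% means no effect; miR-21 action dims this reporter so a rising signal means less miR-21 action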
#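 HeLa miR-21-FLuc reporter line, endogenous miR-21; 2000 cells/well in DMEM/10% FBS; compound titration up to ~40uM final, 48 h, 37 degree Celsius; luciferase detection reagent, 15 min lysis, CCD luminescence.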
# GLA inh pH 4.5: inhibitors of human alpha-galactosidase A at pH 4.5. purified enzyme, 4-MU-alpha-Gal fluorescence, pH 4.5. activity change, negative = inhibition, % at 105 µM. 230,000 tested, under 10 active; inconclusive = small, poorly fitted or top-dose-only inhibition, or a rising curve; inactive = flat fitted curve, though single readings scatter; no compound was filed as active;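 note: 0% = full activity with enzyme and -100% = basal without enzyme; dose as in the result columns while the protocol names 77 µM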
# * hit, by the source's call; ? = inconclusive; nt = not tested or not shown.
# Fields: Rango-impB inh	Rango dissoc inh	miR-21 FLuc	GLA inh pH 4.5
CCOC(=O)c1cnc2c(C(F)(F)F)cccc2c1N1CCOCC1
    -0.9%	-11%	8%	-6
CC(C(=O)NC1CCCC1)N(C(=O)Cn1nnc(-c2ccc(F)cc2)n1)c1ccccc1F (configuration not stated)
    0.1%	2%	20%	nt
COC(=O)c1c(C)[nH]c(C(=O)/C=C/c2ccccc2)c1C
    -0.3%	1%	-10%	4
COC(=O)c1ccc(-n2c(C)cc(-c3csc(NC(=O)c4ccc(S(=O)(=O)N(C)C)cc4)n3)c2C)cc1
    -3.8%	-1%	2%	4
Cc1ccc(C(=O)COC(=O)CNS(=O)(=O)c2ccccc2)cc1[N+](=O)[O-]
    -0.1%	30%	0%	-4
COc1ccc(S(=O)(=O)NCCSCc2ccccc2C)cc1Br
    7.5%	0%	-7%	-11
CC(=O)c1c(C)c2c(n1CCN(C)C)CCCC2
    -0.9%	-11%	1%	1
Cc1cc(N)n2nc(-c3ccc(C(C)(C)C)cc3)cc2n1
    3.5%	4%	-13%	0
O=C(CSc1nc2ncccc2[nH]1)Nc1c(F)cc(F)cc1Br
    4.8%	-3%	9%	nt
CSCC[C@H](NC(=O)c1cccc(S(=O)(=O)N2CCCCCC2)c1)c1nc2ccccc2[nH]1
    -1.4%	-6%	nt	nt
O=C(O)c1nccnc1C(=O)Nc1ccc(Cl)cc1Cl
    0.7%	0%	3%	nt
CCN(CC)CCn1c(=N)n(CC(O)COc2ccccc2)c2ccccc21 (configuration not stated)
    17%	-4%	-1%	-4
CN(CC(=O)Nc1ccccc1Cl)C(=O)COC(=O)/C=C/c1cccc(C(F)(F)F)c1
    3.8%	14%	nt	nt
CCc1nn(CC(=O)N2CCC(C(N)=O)CC2)c(=O)c2cc3occc3n12
    0.8%	33%	-8%	nt
Cc1ccc(CN2CCN(Cc3ccccc3)C(CCO)C2)s1 (configuration not stated)
    -0.7%	?	-2%	-5

# (listing goes on)
# Fields: Rango-impB inh	Rango dissoc inh	miR-21 FLuc	GLA inh pH 4.5
CCCC(=O)Nc1cccc(Oc2ccc3c(c2)C(=O)NC3=O)c1
    -0.1%	10%	-1%	nt
CC(=O)NC1CC2CCCC(C1)N2C(=O)Nc1cccc(C(C)=O)c1 (configuration not stated)
    0.8%	0%	nt	nt
O=C(CSc1nc2ccccc2o1)Nc1nc2c(s1)CCCC2
    19%	0%	nt	nt
COCCn1c(-c2ccc(C)cc2)nc2c(c(=O)c3ccccc3n2C)c1=O
    1.2%	17%	nt	nt
Cc1nn(C)cc1CNC(=O)C1C2CCC(C2)C1C(=O)O (configuration not stated)
    nt	nt	0%	4
CCCc1nc2sc3c(SCC(=O)NCc4ccco4)ncnc3c2c2c1CCC2
    ?	-11%	-13%	0
COc1ccc(N2CCOCC2)c(NC(=O)c2cccnc2)c1
    -3.3%	-28%	-5%	nt
CC(C)N1CC(C(=O)O)CC1=O (configuration not stated)
    -5.3%	8%	3%	7
CCCC[C@@H]1CNCCN1CCCc1cc(OC)c(OC)c(OC)c1
    -4.4%	-11%	nt	nt
COc1ccccc1NC(=O)Oc1ccc(C(C)=O)cc1
    -0.7%	-7%	-3%	2
Cc1ccccc1OCC(=O)N/N=C/c1ccco1
    0.1%	-11%	-8%	-1
CC1CN(c2ccccc2)CCN1Cc1nc(Cc2ccccc2)no1 (configuration not stated)
    -1.3%	5%	-5%	3
Cc1ccc(C)n1-c1ncn[nH]1
    -1.7%	14%	-12%	2
Cc1csc2nc(CNS(=O)(=O)c3ccc4c(c3)CCCC4)cn12
    -3.3%	2%	-6%	7
COc1ccccc1NC(=O)Cc1nnc(SCC(=O)NC2CCCCC2C)n1C (configuration not stated)
    4.0%	21%	-1%	nt

# Continued:
# Fields: Rango-impB inh	Rango dissoc inh	miR-21 FLuc	GLA inh pH 4.5
CC(CN(C)Cc1nc(Cc2cccc(C(F)(F)F)c2)no1)CN1CCCC1 (configuration not stated)
    3.0%	7%	-6%	-5
O=C(O)CCN1C(=O)c2ccc(NC(=O)Cc3ccc(Cl)cc3)cc2C1=O
    -0.7%	-10%	0%	6
CCOC(=O)CNC(=O)C1Cc2ccccc2CN1S(=O)(=O)c1cccs1 (configuration not stated)
    -5.8%	7%	-1%	0
CCN1CCc2c(sc(NC(=O)C3CCCCC3)c2C(=O)OC)C1
    ?	3%	1%	nt
Cc1cc(C)n(CC(=O)NCc2ccccc2)c(=O)c1C#N
    -2.7%	-6%	2%	nt
Cn1c(CCNC(=O)c2ccccc2F)nnc1SCc1nc2ccccc2c(=O)[nH]1
    3.1%	-10%	-4%	-4
Cc1ccc(C2/C(=C(/O)c3cnn(-c4ccccc4)c3C)C(=O)C(=O)N2CCCN2CCOCC2)o1 (configuration not stated)
    nt	nt	-59%	-10
CCCCn1nnc(NC(=O)Cc2ccc(Cl)cc2)n1
    -1.1%	8%	-12%	-1
COc1ccc2cc(CN(C(=O)Nc3ccccc3OC)C3CCCC3)c(=O)[nH]c2c1
    -5.3%	-22%	3%	-3
Cc1ccccc1C(=O)Nc1ccc2c(c1)OCCO2
    0.7%	1%	0%	nt
CC(C)C(=O)Nc1ccc(NC(=O)CCc2ccccc2)cn1
    -4.1%	4%	-15%	8
CCn1c(N2CCN(S(=O)(=O)c3ccc(OC)cc3)CC2)nc2ccccc21
    -2.6%	0%	21%	nt
CC1CC(C)CN(CCCNC(=O)CCNC(=O)Cn2cnc3ccccc3c2=O)C1 (configuration not stated)
    2.0%	26%	-7%	nt
COc1ccccc1CC(=O)Nc1cccc(C)n1
    2.7%	?	-9%	3
O=C1NCCCN1Cc1ccc(Cl)cc1
    ?	11%	-1%	nt

# Next section
# Fields: Rango-impB inh	Rango dissoc inh	miR-21 FLuc	GLA inh pH 4.5
CCN(CC)S(=O)(=O)c1ccc(C(=O)Nc2ccc3c(c2)OCCO3)cc1
    -4.6%	11%	-7%	-12
CCOC(=O)c1cc(-c2csc(COc3ccccc3Cl)n2)on1
    0.3%	3%	1%	-1
CCCCOc1ccc(S(N)(=O)=O)cc1
    0.4%	-1%	-7%	-6
CC1=CC(C)(C)Nc2ccc(OC(=O)CN3C(=O)CCC3=O)cc21
    -7.1%	-4%	?	-8
O=C(Nc1ccc(NC(=O)c2cccs2)cc1)c1ccc2c(c1)OCCO2
    -0.6%	6%	9%	6
O=C(NCC1CCCO1)c1ccc(Br)o1 (configuration not stated)
    -1.5%	5%	-3%	3
O=C(c1ccco1)N1CCN(Cc2cc(=O)c(OCc3cccc(F)c3)co2)CC1
    1.6%	12%	nt	nt
N#CCC(=O)N/N=C\c1cccc(OC/C=C/c2ccccc2)c1
    -3.5%	-3%	-59%	nt
Cc1ccc(NC(=O)c2cc(-c3ccc(C)c(C)c3O)n[nH]2)cc1C
    6.7%	1%	-13%	nt
NS(=O)(=O)c1ccc(NC(=S)N2CCN(S(=O)(=O)c3ccc(F)cc3)CC2)cc1
    nt	nt	1%	-6
Cc1ccc(C(=O)NCCC(=O)Nc2ccccc2C)cc1
    0.1%	?	-7%	nt
Cc1cc(C)n(C2CC(=O)N(c3ccc(C)c(Cl)c3)C2=O)n1 (configuration not stated)
    0.3%	47%	0%	-2
CC(=O)Nc1nc(N2C(=O)c3ccccc3C2=O)n(-c2ccccc2)n1
    0.0%	-9%	2%	-4
Cc1ccc([N+](=O)[O-])cc1/C=N/Nc1nnnn1-c1ccccc1
    1.5%	-10%	-4%	-3
CC(C)NC(=O)COC(=O)/C=C/c1ccc(F)cc1
    -3.5%	11%	-5%	1

# Later entries
# Fields: Rango-impB inh	Rango dissoc inh	miR-21 FLuc	GLA inh pH 4.5
Cc1nc2ccc(CCO)cc2s1
    2.8%	-7%	-16%	2
CCOC(=O)c1ccc(NC(=O)CN(C)S(=O)(=O)c2ccc(Br)s2)cc1
    -2.6%	15%	0%	?
CN(CC(=O)O)C(=O)c1ccccc1
    -3.1%	5%	nt	nt
O=S1(=O)CC2SC(=S)N(Cc3ccccc3)C2C1 (configuration not stated)
    -1.2%	15%	0%	-7
Cn1c(CO)cnc1-c1ccccc1
    -0.9%	-18%	7%	5
Cc1cc(NC(=O)CSCC(=O)N(C)Cc2ccc(F)cc2)no1
    -0.9%	0%	-1%	nt
COc1ccc(CCNC(=O)c2c(O)c3ccccc3[nH]c2=O)cc1
    0.8%	7%	-1%	nt
CSc1ncnc2sc(C)c(C)c12
    1.6%	0%	-1%	5
CCCNC(=O)c1ccccc1C(=O)NC1(C(=O)NCCC)CCCC1
    0.0%	-3%	-2%	5
O=C(NCCN1CCOCC1)[C@H](Cc1ccccc1)N1C(=O)c2ccccc2C1=O
    -2.0%	0%	-1%	8
COc1cc(C(=O)Nc2nnc(C)s2)c([N+](=O)[O-])cc1OC
    -3.6%	-6%	0%	-1
Cc1ccc(C(=O)N/N=c2\sc3ccccc3n2C)cc1
    -0.2%	-4%	-27%	16
CCc1ccc2oc(-c3cccc(NC(=O)c4cccnc4)c3)nc2c1
    2.6%	-1%	-20%	3
COc1cccc(OC)c1C(=O)Nc1cccc2c1CCCC2
    -0.1%	6%	2%	nt
COc1ccc(CCN(C(=O)c2ccccc2)C2=CC3CCC(C2)N3C)cc1OC (configuration not stated)
    nt	nt	-7%	-17

# Next part, overlapping the part above by 3 compounds.
# Fields: Rango-impB inh	Rango dissoc inh	miR-21 FLuc	GLA inh pH 4.5
CCc1ccc2oc(-c3cccc(NC(=O)c4cccnc4)c3)nc2c1
    2.6%	-1%	-20%	3
COc1cccc(OC)c1C(=O)Nc1cccc2c1CCCC2
    -0.1%	6%	2%	nt
COc1ccc(CCN(C(=O)c2ccccc2)C2=CC3CCC(C2)N3C)cc1OC (configuration not stated)
    nt	nt	-7%	-17
C/C(=N\NC(=O)NC1CCCCC1)c1ccc(Cl)s1
    -2.1%	-12%	-1%	nt
CC(=O)Oc1ccc(-c2ccc(C(=O)OCC(=O)c3c(N)n(C)c(=O)n(C)c3=O)cc2)cc1
    2.0%	-6%	nt	nt
CC(c1nnc(SCC(=O)c2c(N)n(C)c(=O)n(C)c2=O)n1-c1ccc(Cl)cc1)N(C)C (configuration not stated)
    -1.2%	-5%	0%	2
Cc1ccc(SC(c2ccccc2)C(Cn2cncn2)C(=O)c2ccccc2)cc1 (configuration not stated)
    2.7%	-4%	-3%	-1
CN(c1ccccc1)S(=O)(=O)c1cccc(NC(=O)C2=NNC(=O)CC2)c1
    4.5%	-15%	nt	nt
COc1ccc(/C(C)=N/N2C(=O)c3ccccc3NC2c2ccc(O)c(OC)c2)cc1 (configuration not stated)
    0.1%	-3%	-40%	-5
O=C1[C@H]2[C@@H](/C=C/c3ccccc3)N3C(=O)CN(CCO)C(=O)[C@@]3(Cc3ccccc3)[C@H]2C(=O)N1c1ccccc1
    -0.1%	-6%	1%	nt
Cc1c(Br)c([N+](=O)[O-])nn1CC(=O)N1CCc2ccccc21
    0.6%	-1%	-2%	-2
COc1cccc2sc(NNC(=O)C3COc4ccccc4O3)nc12 (configuration not stated)
    -0.1%	-8%	4%	-3
O=C(Nc1nc2ccc(S(=O)(=O)N3CCCCC3)cc2s1)C1CCCO1 (configuration not stated)
    -3.7%	0%	2%	-4
O=C(c1ccc(F)cc1)C1CCN(C(=O)Nc2ccccc2Cl)CC1
    0.0%	-1%	1%	3
CC(C)CC(=O)Nc1ccc(C(=O)COC(=O)C2=COCCO2)cc1
    1.0%	14%	nt	nt

# Sorted by count of non-hydrogen atoms (lowest first): part of the list above.
# Fields: Rango-impB inh	Rango dissoc inh	miR-21 FLuc	GLA inh pH 4.5
CSc1ncnc2sc(C)c(C)c12
    1.6%	0%	-1%	5
COc1ccccc1CC(=O)Nc1cccc(C)n1
    2.7%	?	-9%	3
Cc1ccc([N+](=O)[O-])cc1/C=N/Nc1nnnn1-c1ccccc1
    1.5%	-10%	-4%	-3
CC(CN(C)Cc1nc(Cc2cccc(C(F)(F)F)c2)no1)CN1CCCC1 (configuration not stated)
    3.0%	7%	-6%	-5
COC(=O)c1ccc(-n2c(C)cc(-c3csc(NC(=O)c4ccc(S(=O)(=O)N(C)C)cc4)n3)c2C)cc1
    -3.8%	-1%	2%	4

# An excerpt. The share of hits here may be higher or lower than overall.
